ClpP mod = qHTS Assay for Activators of ClpP; ATP-dependent Clp protease proteolytic subunit (Bacillus subtilis (strain 168)), P80244; purified B. subtilis ClpP, FRET peptide cleavage, 20 min; Potency, µM (top dose mostly 57.5 µM), without a hit: top-dose activity change, negative = active; hit rate 1.9% among 340,000; AID 651965, 2013; active = well fitted falling curve with a large enough effect; inconclusive = small, poorly fitted or top-dose-only effect; inactive = no such curve, though single readings can be large or run the other way; note: potency is the fitted concentration of half-maximal effect; the source files actives as falling curves though it sought activators and does not explain the sign; nearly all actives have a fitted effect of over 65% in size; many hits overshoot -100%
Target sequence (P80244 whole entry, looked up): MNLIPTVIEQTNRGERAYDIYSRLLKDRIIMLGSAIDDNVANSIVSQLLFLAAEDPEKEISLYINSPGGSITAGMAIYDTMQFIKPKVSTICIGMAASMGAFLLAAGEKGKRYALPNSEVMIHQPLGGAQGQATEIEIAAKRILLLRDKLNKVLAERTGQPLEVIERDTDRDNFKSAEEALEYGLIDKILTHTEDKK
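FRET quenching reversal measured ClpP activation: 10 microg/mL B. subtilis ClpP at pH 8 with the FRET-FV decapeptide, read at 430 nm after 320 nm excitation. The 20-min minus 0-min signal was scaled between DMSO/no-enzyme wells and ADEP (5.8 microM final).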
CtBP-E1A blk = qHTS Assay for Inhibitors of the CtBP/E1A Interaction; CtBP / adenovirus E1A interaction (AlphaScreen); AlphaScreen GST-E1A/His-CtBP binding, 1536-well; active compounds read low; control for the full effect not named in the record; activity change, % (concentration not given with the values); hit rate 0.49% among 340,000; AID 651724, 2012; in the data active means activity change below about -65%; inconclusive means about -30% to -65%; inactive means above about -30%; note: % is set by controls: 0 for no effect and ±100 for the full control effect
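Steps: dispense buffer (Tris pH 8.0, NaCl 300 mM, TCEP 1 mM, BSA, Tween 20); add 5X protein mix (GST-E1A, His-CtBP, 125 nM each); pin 23 nL compound; 2 h at 37 °C, dark; add 5X beads (50 ug/mL); 1 h; read.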
Sfp inh = qHTS Assay for Inhibitors of Bacillus subtilis Sfp phosphopantetheinyl transferase (PPTase); Potency, µM, for inactives: max response, negative = inhibition, most hits filed as inhibitors; hit rate 3.5% among 310,000; Biochemical Sfp PPTase activity, qHTS; 4'-phosphopantetheinyl transferase ffp (Bacillus subtilis), Q9F4F7; active = well fitted inhibition curve with a large enough effect; inconclusive = small, poorly fitted or top-dose-only effect, or another doubt; inactive = no such curve, though single readings can be large or run the other way;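 note: the enzyme is Sfp with the accession as filed and its product quenches rhodamine fluorescence; potency is the fitted concentration of half-maximal effect; 0% = enzyme reaction without inhibitor and -100% = no enzyme wells; top concentration of the series not given in the record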
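Compounds were incubated with enzyme (final 15 nM) for 15 min at room temperature before substrate addition started the reaction. Fluorescence at 525 nm excitation, 598 nm emission was recorded immediately and after 30 minutes.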
gsp antagonist = qHTS for Antagonists of gsp, the Etiologic Mutation Responsible for Fibrous Dysplasia/McCune-Albright Syndrome: qHTS; gsp-mutant cells, cAMP HTRF, 30 min; control for the full effect not named in the record; Potency, µM (series often up to 76.9 µM), inactives show top-dose activity change, negative = inhibition, actives largely listed as inhibitors; hit rate 0.4% among 340,000; active = falling curve of any shape with a large fitted effect; inconclusive = falling curve, mostly with a smaller effect; inactive = flat or rising curve; cell line not stated here;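 note: intracellular cAMP measured with PDE inhibitor Ro 20-1724 present during compound exposure; potency is the fitted concentration of half-maximal effect; % is set by controls: 0 for no effect and ±100 for the full control effect; nearly all actives have a fitted effect of over 65% in size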
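G418-selected cells were plated in DMEM/10% FBS for 16-24 h at 37C, then treated with compounds plus the PDE inhibitor […] (300 uM solution added) for 30 min at 37C. Intracellular cAMP was measured by HTRF after 30 min lysis at room temperature.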
Menin-MLL FL inh = qHTS Assay for Inhibitors Targeting the Menin-MLL Interaction in MLL Related Leukemias: Competition With Fluorescein Labeled MLL-derived Peptide. FP activity change, % at 61.4 µM. Fluorescence polarization, fluorescein-MLL peptide displacement from menin. 290,000 tested, under 10 active. AID 1766, 2009; inconclusive = falling polarisation curve, or a change in total fluorescence; inactive = total fluorescence flat and polarisation flat or rising; no compound was filed as active; the % refers to the polarisation; negative = inhibition;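 note: % of control where 0% means no effect; inhibitors lower the polarisation; unlabelled MLL peptide was the positive control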
TRPV1 PAM = HTS Assay for Compounds that Act as Potentiators of the Vanilloid Receptor 1 | AID 540277, 2011 | Transient receptor potential cation channel subfamily V member 1 (Homo sapiens), Q8NER1 | TRPV1-expressing cells, Fluo-8 calcium influx, capsaicin EC20 potentiation; host cell line not named in the record; control for the full effect not named in the record | potentiation, % at 8.33 µM | hit rate 0.02% among 320,000; active means potentiation above 80%; inconclusive means 30% to 80%; inactive means below 30%; note: 0% is about no effect
Target sequence (Q8NER1 whole entry, looked up): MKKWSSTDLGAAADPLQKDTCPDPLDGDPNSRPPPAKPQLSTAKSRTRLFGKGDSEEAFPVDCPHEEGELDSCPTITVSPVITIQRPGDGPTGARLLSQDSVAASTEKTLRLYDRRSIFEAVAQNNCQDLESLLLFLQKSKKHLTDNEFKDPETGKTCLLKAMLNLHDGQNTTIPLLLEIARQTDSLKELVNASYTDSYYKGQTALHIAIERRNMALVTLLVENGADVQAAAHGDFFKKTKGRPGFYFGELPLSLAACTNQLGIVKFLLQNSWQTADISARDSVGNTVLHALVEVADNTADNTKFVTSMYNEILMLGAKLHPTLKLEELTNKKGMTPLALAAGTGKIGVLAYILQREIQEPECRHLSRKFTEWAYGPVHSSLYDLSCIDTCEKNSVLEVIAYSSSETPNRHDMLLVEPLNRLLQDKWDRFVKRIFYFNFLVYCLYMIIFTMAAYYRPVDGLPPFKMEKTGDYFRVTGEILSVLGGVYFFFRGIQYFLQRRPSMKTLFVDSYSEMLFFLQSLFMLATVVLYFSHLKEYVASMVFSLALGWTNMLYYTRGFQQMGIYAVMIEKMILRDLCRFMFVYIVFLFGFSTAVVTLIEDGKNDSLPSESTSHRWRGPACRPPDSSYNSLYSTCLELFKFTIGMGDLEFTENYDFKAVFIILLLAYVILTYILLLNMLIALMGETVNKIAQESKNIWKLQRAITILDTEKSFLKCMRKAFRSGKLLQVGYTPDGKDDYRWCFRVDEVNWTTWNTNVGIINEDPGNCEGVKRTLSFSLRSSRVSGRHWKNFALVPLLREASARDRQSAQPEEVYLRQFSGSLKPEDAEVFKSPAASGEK
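Fluo-8 calcium influx in TRPV1-expressing cells, kinetic read (ex 480/em 520 nm). Compound added and read 3 min for agonist activity, followed by capsaicin at EC20 final and 2 min further read for enhancement.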
gsp ag = qHTS for Agonist of gsp, the Etiologic Mutation Responsible for Fibrous Dysplasia/McCune-Albright Syndrome: qHTS; gsp mutant cells, cAMP HTRF, 30 min; control for the full effect not named in the record; Potency, µM (series often up to 76.9 µM), inactives show top-dose activation (cAMP increase), usual class: activators; hit rate 0.13% among 340,000; active = well fitted activation curve with a large enough effect; inconclusive = small, poorly fitted or top-dose-only effect, or another doubt; inactive = no such curve, though single readings can be large or run the other way; cell line not stated here;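 note: phosphodiesterase inhibitor Ro 20-1724 added with compounds to block cAMP breakdown; potency is the fitted concentration of half-maximal effect; nearly all actives have a fitted effect of over 60% in size; about a fifth of the inactives were tested at one dose only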
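Cells in DMEM/10% FBS with G418 were pretreated with compounds in DMSO plus […] (300 uM stock) for 30 min at 37C. cAMP was measured by HTRF (cAMP-d2 plus anti-cAMP antibody-K) after 30 min at room temperature.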
Active calls of the source: *; ? = inconclusive; . = not tested or not shown; & = joins results of further samples; [ ] = another dose, or the depositor's remark. Outcome played no part in choosing rows, and some 5.3% of all compounds hit somewhere here.

SMILES	ClpP mod	CtBP-E1A blk	Sfp inh	gsp antagonist	Menin-MLL FL inh	TRPV1 PAM	gsp ag
CCCCOc1ccc(NC(=O)CN2CCN(Cc3ccccc3)CC2)cc1	0.6%	3	9%	16%	-4.6	-4	-2%
O=C(COC(=O)c1n[nH]c(=O)c2ccccc12)Nc1cccc(S(=O)(=O)N2CCOCC2)c1	-1.0%	-1	.	7%	.	.	-1%
CCCC(NCC(=O)Nc1ccccc1C(=O)NC1CC1)c1ccccc1 (stereo not drawn)	-2.4%	10	.	-13%	.	-11	?
COc1ccc(-n2c(Cc3cccn3C)nnc2SCC(=O)Nc2cccc(Cl)c2)cc1	3.4%	-10	-12%	-25%	3.4	7	-111%[inhibitor]
Oc1ccccc1/C=N/[n+]1ccccc1	.	10	-6%	1%	1.4	?	-36%[15.4 µM]
CCOC(=O)[C@@H]1[C@H]2COc3ccc(Br)cc3[C@@H]2N2C(=O)N(c3ccc(F)cc3)C(=O)[C@@]12C	-2.0%	4	.	-10%	.	.	11%
O=C1CN(C(=O)CSc2nc3ccccc3c(=O)n2CC2CCCO2)c2ccccc2N1 (stereo not drawn)	-3.2%	-21	4%	-2%	1.0	2	25%
O=C(NCCN1C(=O)C2C3C=CC(C3)C2C1=O)Nc1cccnc1 (stereo not drawn)	-0.4%	9	12%	4%	-2.9	-4	-48%[inhibitor]
CC(C)/C=N/NC(=O)c1ccc(Cl)cc1	-0.9%	.	-4%	23%	1.6	-24	-18%
Cc1[nH]n(-c2ccccc2)c(=O)c1/C=N/N(C)c1ccccc1	1.0%	1	-18%	2%	2.3	-12	2%
C#CCOc1ccc(Cl)cc1/C=N/O	-7.5%	8	5%	4%	4.2	-9	3%
Cc1ccc(C(=O)OCC(=O)N2CC(C)CC(C)C2)cc1S(=O)(=O)N1CCOCC1 (stereo not drawn)	-1.1%	2	1%	-12%	.	1	1%[15.4 µM]
COc1cccc(-n2c(SCc3c(C)noc3C)nnc2-c2cccc(S(=O)(=O)N(C)C)c2)c1	-0.2%	1	0%	0%	4.5	-12	-4%
COc1cccc(CNc2nc(SC)ncc2CO)c1	-2.9%	-3	4%	6%	2.3	-1	1%
Cc1ccc(CNC(=O)C2CCCN2C(=O)Nc2ccc(F)cc2)cc1 (stereo not drawn)	-0.3%	9	11%	-3%	-0.9	12	-6%
CCOC(=O)c1c(NC(=O)CCS(=O)(=O)c2ccccc2)sc2c1CCN(C(C)C)C2	-10.0%	3	-8%	5%	-1.2	-4	-28%
CCc1ccccc1NC(=O)NC1CCCCCCC1	1.0%	5	21%	-2%	.	-2	-28%
Cc1ccc(-c2cnco2)cc1	-2.1%	.	10%	2%	-1.1	1	-29%
c1ccc2c(-c3ccncc3)c[nH]c2c1	-4.6%	-1	11%	11%	2.4	-13	-16%
COc1ccc(-c2cc(C)no2)cc1S(=O)(=O)NCCc1ccco1	-2.9%	-9	21%	0%	.	12	?
CCCOC(=O)c1cc2ccccc2oc1=O	?	0	6%	1%	0.4	6	-32%[inhibitor]
CN(C)c1ccc(/C=C/C(=O)c2cc(Cl)ccc2O)cc1	0.4%	.	-11%	2%	?	14	1%
c1ccc(-c2n[nH]c(-c3ccccn3)n2)nc1	25µM*	-95*	20µM*	3%&3%	2.4&1.1	-5&-4	-37%&-51%[inhibitor]
CC(C)CNC(=O)C1Nc2ccc(OC(F)(F)F)cc2C2C=CCC12 (stereo not drawn)	-6.4%	1	.	3%	.	.	-3%
CC(C)NCC(O)c1ccc2ccccc2c1 (stereo not drawn)	-0.4%	0	13%&10%	5%	-10&-0.3	3	.
Nc1nc(NCc2ccco2)nc(NC2CCCCC2)c1[N+](=O)[O-]	.	-22	19%	4%	3.0	-4	-2%[15.4 µM]
CCCNC(=O)/C=C/c1ccc(C(C)C)cc1	0.3%	5	10%	6%	5.4	-19	-1%
CC(=O)N1c2ccc(S(=O)(=O)N3CCCC3)cc2CC1C(=O)NCc1ccc(N(C)C)cc1 (stereo not drawn)	-3.9%	-15	-7%	-3%	.	2	-2%
S=C1N(c2ccccc2)CN(C2CCCCC2)CN1c1ccccc1	0.8%	.	2%	6%	-3.7	-6	-9%
CNC(=S)N1CCC(Cc2ccccc2)CC1	-1.3%	8	11%	8%	1.1	-12	29%
CCOc1ccc(Nc2nc3ccccc3n3cnnc23)cc1	2.7%	0	9%	5%	2.0	3	-13%
CC(C)(C)Cc1nnc(NS(=O)(=O)c2ccc([N+](=O)[O-])cc2)s1	0.5%	5	-2%	?	-1.2	6	5%[15.4 µM]
CC(C)CC(=O)N/C(N)=N/c1nc2ccccc2s1	?	-1	1%	-14%	1.4	7	0%
Cc1ccc(S(=O)(=O)N(CC(=O)NCc2ccco2)Cc2ccc(F)cc2)cc1	1.2%	-1	-4%	-13%	2.4	-7	-30%[inhibitor]
O=C(O)CSc1cc(C(F)(F)F)nc(-c2ccccn2)n1	-3.6%	-3	-20%	7%	0.4	3	5%
CC1CC(C)CN(S(=O)(=O)N2CCCC(C(=O)NCCCN3CCCCC3C)C2)C1 (stereo not drawn)	-0.4%	8	0%	14%	2.6	-1	?
CCCCCNCc1ccc(Cl)cc1	.	9	17%	4%	-0.6	3	-20%
O=C(C1CC(=O)N(C2CCCC2)C1)N1CCN(c2ccccc2)CC1 (stereo not drawn)	1.1%	7	10%	18%	.	-1	-3%[15.4 µM]
CNC(=O)c1ccc(Oc2ccc(C(=O)NC)cc2)cc1	0.6%	4	12%	-11%	1.0	1	9%
N#Cc1ccc(OCC(=O)N(C2CCCCC2)C2CCS(=O)(=O)C2)cc1 (stereo not drawn)	0.8%	3	.	5%	.	15	2%
O=C(c1cc(-c2ccco2)nn1-c1cccc(Cl)c1)N1CCCCC1	?	0	8.9µM*	?	4.8	-17	-15%
O=S1(=O)N[C@@H](CC2=CCCCC2)C2CCCCC2O1 (stereo partly drawn)	-5.0%	-20	15%	5%	0.2	1	.
COc1cc(/C=C2/CCc3ccccc3C2=O)cc(OC)c1OC	-2.8%	-6	-17%	-9%	-0.2	-9	0%
Cc1ccc(N(CC(=O)NCc2ccc(F)cc2)C(=O)c2csnn2)cc1C	-0.9%	.	5%	5%	-1.8	2	-228%[inhibitor]
CC(C)(C)CC(C)(C)NC(=S)N1CCN(Cc2ccc3c(c2)OCO3)CC1	0.2%	.	8%	6%	-8.1	-2	-24%
COc1cc2c(cc1NC(=O)C(C)Sc1nc3ccccc3n1C)oc1ccccc12 (stereo not drawn)	-2.0%	6	7%	-3%	6.8	22	10%
COc1ccc(C(=O)Nc2ccc(Br)cc2F)cc1S(=O)(=O)N1CCCC1	-0.9%	-1	.	-28%	.	-3	-13%
O=C1CN(C(=O)COC(=O)[C@@H]2CC(O)CN2S(=O)(=O)c2ccc(Cl)cc2)c2ccccc2N1 (stereo partly drawn)	-0.4%	5	.	9%	.	.	6%
Cc1ccccc1-n1nnc2c(=O)oc3ccccc3c21	1.1%	-1	-17%	-5%	-1.5	14	-23%
CC(=O)N1c2ccccc2C(C)=CC1(C)C	-2.8%	.	19%	6%	0.6	6	4%
O=C(Cc1ccc(Cl)cc1)N/N=C/c1cccs1	-0.1%	.	8%	1%	0.4	-2	-23%
COc1ccc(NC(=O)COC(=O)c2ccc(S(=O)(=O)N(C)c3ccccc3OC)cc2)cc1OC	.	-4	15%	-70%	0.6	12	-15%[15.4 µM]
CSc1ccccc1NC(=O)CN(C)C(=O)Cc1c(F)cccc1Cl	.	-20	13%	2%	-0.9	19	8%[15.4 µM]
N#CC(Cc1cccc(CC(C#N)(c2ccccc2)c2ccccc2)c1)(c1ccccc1)c1ccccc1	-2.4%	-20	7%	0%	-12	-11	33%
CCC(C)c1ccc(OCC(=O)Nc2ccc3c(c2)C(=O)NC3=O)cc1 (stereo not drawn)	-6.1%	0	7%	-3%	.	0	29%[15.4 µM]
COc1ccc(CCNC(=O)CC2C(=O)NCCN2CC(C)(C)C)cc1 (stereo not drawn)	.	1	18%	-1%	-2.6	-3	-39%[inhibitor]
N#Cc1cc2c(nc1SCC(N)=O)CCCCC2	-2.9%	-6	10%	-5%	1.1	13	5%
Cc1c2cc[n+](CCN3CCCCC3)cc2c(C)c2c1[nH]c1ccc(O)cc12	-2.0%	4	.	-20%	.	.	-1%
CN(C(=O)COC(=O)c1n[nH]c(=O)c2ccccc12)c1ccccc1	0.6%	.	.	-2%	.	0	-2%
CCCN(CCC)c1nc(-c2ccccn2)nc2ccccc12	.	?	-11%	-5%	2.5	-3	2%

Remaining list, next part
SMILES	ClpP mod	CtBP-E1A blk	Sfp inh	gsp antagonist	Menin-MLL FL inh	TRPV1 PAM	gsp ag
CCCCCCc1nc(C(N)=O)c2[nH]c(=O)n(-c3ccc(OCC)cc3)c2n1	-25%	.	17%	-2%	2.5	10	-13%
Cc1ccc(CNC(=O)CCS(=O)(=O)c2ccc(Br)s2)cc1	?	0	0%	6%	4.5	-6	-20%
COc1ccc(NS(=O)(=O)c2cccc(-c3n[nH]c(=S)n3Cc3ccccc3)c2)cc1	0.0%	-1	-14%	?	-4.7	8	4%[15.4 µM]
COc1ccc(NC(=O)Cc2c(O)c3ccccc3[nH]c2=O)cc1	-20%	-2	-1%	1%	-1.4	7	3%

High-throughput results from PubChem BioAssay.
